Assay outcomes deposited in PubChem by Vanderbilt University.
GIRK2 act – activators of human GIRK2 potassium channels | G protein-activated inward rectifier potassium channel 2 (Homo sapiens), P48051 | HEK293-GIRK2 thallium flux, Thallos fluorescence | calls only for hits at 25 µM | 0.05% of 63,000 active | AID 1259325, 2017;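 active = among the strongest 0.2% of first-round signals and kept after retests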;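 note: first round at about 10 µM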
Target sequence (P48051 whole entry, looked up): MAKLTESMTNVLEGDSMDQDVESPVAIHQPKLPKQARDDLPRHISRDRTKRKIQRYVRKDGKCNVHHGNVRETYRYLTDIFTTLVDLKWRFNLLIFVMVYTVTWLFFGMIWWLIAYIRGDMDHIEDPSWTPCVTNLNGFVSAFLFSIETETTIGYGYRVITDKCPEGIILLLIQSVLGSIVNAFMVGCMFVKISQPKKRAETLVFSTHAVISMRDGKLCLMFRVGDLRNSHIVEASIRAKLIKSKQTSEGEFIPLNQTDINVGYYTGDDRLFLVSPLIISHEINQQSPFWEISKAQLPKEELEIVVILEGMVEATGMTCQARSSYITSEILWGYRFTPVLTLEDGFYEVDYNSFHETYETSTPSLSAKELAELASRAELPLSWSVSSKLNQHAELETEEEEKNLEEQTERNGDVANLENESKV
Calls only; i = inactive. These rows are one share of the data; the hit share may differ from the screen's.

SMILES | GIRK2 act
CC(=O)Nc1ccc(SCCCC(=O)N2c3ccc(F)cc3CCC2C)nn1 (stereo not given) | i
O=C(NCCn1nc(C2CC2)n(-c2ccccc2)c1=O)Nc1ccc(F)cc1 | i
Cc1cc(C)c(NC(=O)CSc2nccc(N3CCN(c4ccccc4)CC3)n2)c(C)c1 | i
COc1c(Cl)cc(Cl)cc1C=O | i
COc1ccc(-c2nc(C)cc3nn(CC(=O)Nc4c(C)cccc4C)c(=O)n23)cc1 | i
NS(=O)(=O)c1cccc(N=Cc2c(O)[nH]c3ccccc23)c1 | i
O=C(c1ccc(S(=O)(=O)NCc2cccnc2)o1)N1CCC(Cc2ccccc2)CC1 | i
CS(=O)(=O)N1CCN(C(=O)c2cc3n(n2)CCCO3)CC1 | i
COCCN(CCOC)C(=O)CN1C(=O)c2ccccc2S1(=O)=O | i
COC(=O)c1sc2cccc(F)c2c1S(=O)(=O)Nc1ccc(OC)cc1 | i
COc1cc(/C=N\Nc2ncnc3nc[nH]c23)cc(OC)c1OC | i
COc1ccc(C(CNC(=O)c2ccc(C(C)(C)C)cc2)N2CCN(C)CC2)cc1 (stereo not given) | i
CCOC(=O)c1ccc(NC2SC(=O)N(c3cccc(C(F)(F)F)c3)C2=O)cc1 (stereo not given) | i
O=C(c1cccc(F)c1)N1CCN(Cc2cnnn2-c2ccccc2)CC1 | i
O=C(Cn1nc(-c2ccccc2)c2sc(N3CCOCC3)nc2c1=O)N1CCc2ccccc21 | i
COc1ccc(C(O)CN2CCN(c3cccc(Cl)c3)CC2)cc1 (stereo not given) | i
O=C(CCCS(=O)(=O)Cc1ccccc1)Nc1cccc(Br)c1 | i
COCCCN1CN(S(=O)(=O)c2ccc(Cl)cc2)c2nc3ccccc3nc21 | i
COC(=O)c1cc(-c2ccc(C)cc2)n(-c2ccc(S(C)=O)cc2)n1 (stereo not given) | i
COc1cccc(Cn2cnc3c(-c4ccc(C)cc4)csc3c2=O)c1 | i

Given comma-delimited: 2 of the compounds above
mol,GIRK2 act
COC(=O)c1cc(-c2ccc(C)cc2)n(-c2ccc(S(C)=O)cc2)n1 (stereo not given),i
COc1cccc(Cn2cnc3c(-c4ccc(C)cc4)csc3c2=O)c1,i

More results follow:
SMILES | GIRK2 act
C=CCn1c(NCCCOCC)nc2c1c(=O)[nH]c(=O)n2C | i
COc1ccc(/C=C2\SC(=S)N(c3ccc(C(=O)O)c(O)c3)C2=O)cc1OC | i
CC(=O)CC1(O)C(=O)N(Cc2ccc(OC(C)C)cc2)c2ccc(C)cc21 (stereo not given) | i
O=C(NCc1ccccc1)C(=O)c1cn(CC(=O)N2CCOCC2)c2ccccc12 | i
O=C(Nc1nc(CCC(=O)N2CCN(c3cccc(Cl)c3)CC2)cs1)c1ccco1 | i
Cn1cc(C(=O)OC2CN(c3nc4c(Cl)cccc4s3)C2)nn1 | i
N#C/C(=C\c1ccc(-c2ccc(F)cc2)o1)C(=O)c1c[nH]c2ccccc12 | i
CC(=O)Nc1nc(-c2cc3ccccc3o2)cs1 | i
CCc1ccccc1NC(=O)Cn1nc(-c2cccs2)c2sc(N3CCCC3)nc2c1=O | i
Cn1c(=O)n(CCc2ccccc2)c(=O)c2c(N3CCN(C(=O)c4ccco4)CC3)ccnc21 | i
O=C(Cn1cccc(S(=O)(=O)N2CCOCC2)c1=O)N1CCCc2ccccc21 | i
COc1ccc(-n2nc(C(=O)Nc3cccc(C)c3)c(=O)cc2OC)cc1OC | i
CC(C)c1cc(=O)[nH]c(-n2nc(C3CC3)cc2NC(=O)c2ccc(C(F)(F)F)cc2)n1 | i
O=C(NCCc1csc2nc(-c3cccs3)nn12)NC1CCCCCC1 | i
Cc1cc(C)cc(-n2ccn(CC(=O)Nc3ccccc3C(F)(F)F)c(=O)c2=O)c1 | i
CS(=O)(=O)NCC1CCC(C(=O)N2CCN(c3ncccn3)CC2)CC1 (stereo not given) | i
CCn1c(=O)c([N+](=O)[O-])c(NCCCO)c2ccccc21 | i
O=C(Nc1nc(-c2cc([N+](=O)[O-])cs2)cs1)c1cc(-c2ccco2)on1 | i
CCCCOc1ccc(C(=O)NCC2CCN(C(=O)c3ccncc3)CC2)cc1 | i
C=CCOC(=O)COc1ccc2c(=O)c(-c3ccc(Br)cc3)c(C(=O)OCC)oc2c1 | i
Cc1cc(O)c2c(=O)c(O)c(C)oc2c1 | i
COc1cc(NC(=O)Nc2cccc(C(F)(F)F)c2)ccc1N1CCCC1=O | i
COc1ccc(-c2noc(CN3N=NC4C(=O)N(c5ccc(C)c(F)c5)C(=O)C43)n2)c(OC)c1 (stereo not given) | i
Cc1cccc(C(=O)N2CCN(C(=O)C(NC(=O)c3ccco3)S(=O)(=O)c3ccccc3)CC2)c1 (stereo not given) | i
CCOc1ccc(C)cc1S(=O)(=O)NCC(C)(O)CCc1ccccc1 (stereo not given) | i
CC(C)(Oc1ccc(Cl)cc1)C(=O)NCc1cnn2ccccc12 | i
COc1cc(NC(=O)Nc2ccccc2Cl)ccc1N1CCCC1=O | i
Cc1cc(CN2CCC(CNC(=O)C3(c4ccccc4)CCOCC3)CC2)c(C)o1 | i
COc1cc2[nH]c3c(=O)n(CCC(=O)N4CCN(c5ccccc5OC)CC4)cnc3c2cc1OC | i
COc1nn(C)cc1C(=O)NC1CCCC(OC(=O)Nc2ccc(F)cc2)C1 (stereo not given) | i

Four entries from above, as labelled records.
compound: COc1cc(NC(=O)Nc2ccccc2Cl)ccc1N1CCCC1=O
  GIRK2 act: i

compound: Cc1cc(CN2CCC(CNC(=O)C3(c4ccccc4)CCOCC3)CC2)c(C)o1
  GIRK2 act: i

compound: COc1cc2[nH]c3c(=O)n(CCC(=O)N4CCN(c5ccccc5OC)CC4)cnc3c2cc1OC
  GIRK2 act: i

compound: COc1nn(C)cc1C(=O)NC1CCCC(OC(=O)Nc2ccc(F)cc2)C1 (stereo not given)
  GIRK2 act: i

Following part.
SMILES | GIRK2 act
Cc1nc(CN2CC(c3nc(-c4cccs4)no3)C2)cs1 | i
Cc1ccc(Nc2nc(NCCCOC(C)C)nc3n[nH]nc23)cc1 | i
Cc1cc(C(=O)NCC2CCN(C(=O)Oc3ccccc3)CC2)c(C)o1 | i
O=C(Cn1ccn2nc(-c3ccccc3)cc2c1=O)NCCc1ccccc1 | i
C=CCCC(=O)N(Cc1ccsc1)CC(F)(F)F | i
COc1ccc(CC2=NS(=O)(=O)c3cc(S(=O)(=O)N4CCCCC4)ccc3N2)cc1OC | i
COc1cc2nc(SCc3ccc(C)cc3)n3nc(CCn4nc(C)cc4C)nc3c2cc1OC | i
Cc1cc(C)cc(N2CC(C)Cn3c2nc2c3c(=O)n(CCN3CCOCC3)c(=O)n2C)c1 (stereo not given) | i
COc1ccc(S(=O)(=O)N2CCC(C)CC2)cc1 | i
O=c1nc2n(c3sc4c(c13)CCCC4)C(CSc1ccc([N+](=O)[O-])cc1)CS2 (stereo not given) | i
CCOc1ccc(S(=O)(=O)NCCc2nc(C)cc(C(F)(F)F)n2)cc1 | i
O=C(Nc1ccccc1-c1ccc(=O)[nH]n1)C1CCCO1 (stereo not given) | i
Cc1ccc(C)c2sc(N(C)CC(=O)N3CCn4c3nc3ccccc34)nc12 | i
Cc1cccc(NC(=O)Cn2nc3nc(N4CCCCCC4)ccn3c2=O)c1C | i
CCOc1ccc(N2C(=O)C3N=NN(Cc4nc(-c5ccc(OCC)c(OC)c5)no4)C3C2=O)cc1 (stereo not given) | i
COc1ccc(/C=C/C(=O)NCc2nn(C3CCCC3)c(=O)c3ccccc23)cc1OC | i
O=C(c1cc(-c2ccccc2)n[nH]1)N1CCCC(c2nnc(-c3ccccc3F)s2)C1 (stereo not given) | i
Cc1cc(C)c(NC(=O)Cn2cccc(-c3nc(-c4ccccc4)no3)c2=O)c(C)c1 | i
O=C(Nc1ccc2c(c1)OCCO2)c1ccc(-n2cccn2)nn1 | i
CCOc1ccc(-c2nc(C#N)c(N3CCN(C(=O)c4ccc(Cl)cc4)CC3)o2)cc1 | i
Cc1nn(C2CCS(=O)(=O)C2)c(C)c1N1CCN(C(=O)C2(c3cccs3)CCCC2)CC1 (stereo not given) | i
O=C(CSCc1ccccc1)NCCCn1ccnc1-c1ccccc1 | i
COc1ccc(Cl)cc1NC(=O)Cn1nc2c3cccc(C)c3ncn2c1=O | i
O=C(NCCOc1ccc2c(c1)OCO2)c1cc2ccccc2oc1=O | i
COc1ccccc1N1CCN(c2nccnc2SCC(=O)NCc2ccccc2Cl)CC1 | i
O=C(Nc1ccccc1)Nc1nnc(Cc2ccccc2)o1 | i
Cc1nc(-c2cccs2)sc1CNC(=O)c1cc(=O)c2ccccc2o1 | i
Cn1cc[nH]c1=S | i
CCN(CC)S(=O)(=O)c1ccc2nc(N3CCN(c4ccc(C(C)=O)cc4)CC3)cnc2c1 | i
CCCCC(=O)Nc1oc2c(C)cccc2c(=O)c1-c1ccc(OC)c(OC)c1 | i
CCn1nc(C(=O)N2c3ccccc3CC2C)ccc1=O (stereo not given) | i
CN1CCc2c(sc(NC(=O)c3ccc4ncsc4c3)c2-c2nc3ccccc3s2)C1 | i
Cc1ccc(NC(=O)c2cccc(Br)c2)cc1N1CCCC1=O | i
CCOC(=O)C1CCCN(C(=O)C2CCCN(c3ccc(-c4nc(C)no4)cn3)C2)C1 (stereo not given) | i
COc1cc(NC(=O)Cn2ccn3nc(-c4ccc(OC)c(OC)c4)cc3c2=O)cc(OC)c1 | i
CCCc1nnsc1C(=O)Nc1cc(C)nn1-c1nc2ccc(C)cc2s1 | i
CCN1CCc2c(sc(N)c2-c2nc3ccccc3s2)C1 | i
COc1ccc(F)cc1S(=O)(=O)NCCC1=CCCCC1 | i
O=S(=O)(c1cccnc1)N1CCC(Oc2ncccc2Cl)CC1 | i
CCN(CC)C(=O)CSc1nc2cc(OC)c(OC)cc2c2nc(-c3ccccc3)nn12 | i
Cc1cc(NC(=O)c2ccc(S(=O)(=O)N(C)C3CC3)cc2)n(-c2nc3ccc(F)cc3s2)n1 | i
C=CCOC(=O)COc1ccc2c(=O)c(Oc3cccc(OC)c3)c(C)oc2c1 | i
COc1ccc(/C=C2\Oc3cc(OS(C)(=O)=O)ccc3C2=O)c(OC)c1OC | i
Cn1c(=O)c2nc(SCCN3CCCCCC3)n(C)c2n(C)c1=O | i
CCOC(=O)c1sc2ccccc2c1S(=O)(=O)N1CCN(c2ccccn2)CC1 | i
O=C(NCC1CCN(C(=O)Oc2ccccc2)CC1)c1ccc2nsnc2c1 | i
COCCn1c(-n2nc(C)cc2C)nc2c1c(=O)n(Cc1ccc(OC)cc1)c(=O)n2C | i
COc1ccc(CC(C)(O)CNC(=O)c2cccs2)cc1 (stereo not given) | i
COc1ccc2cccc(NC(=O)CSc3nc4ccccc4o3)c2n1 | i
CCN1CCN(c2nc3c(c(=O)[nH]c(=O)n3C)n2CC(=O)c2ccccc2)CC1 | i
New compounds follow.
SMILES | GIRK2 act
COc1cccc(C(=O)N2CCN(Cc3cnnn3-c3ccccc3F)CC2)c1 | i
COc1ccc(NC(=O)COc2cc(C)nc(N3CCCCC3)n2)cc1Cl | i
CCOC(=O)C1=C(C)NC(C)=C(C(=O)OCC)C1c1ccccc1/C=C/C(=O)OC(C)(C)C | i
O=C(/C=C/C1=Cc2ccccc2OC1)N1CCCc2ccccc21 | i
CC(O)CNc1ncnc2[nH]ncc12 (stereo not given) | i
COc1ccccc1C1(C(=O)NCC2CCN(C(=O)NC(C)(C)C)CC2)CCOCC1 | i
Cn1c(CN2CCN(C(=O)C3COc4ccccc4O3)CC2)nc2ccccc21 (stereo not given) | i
CCc1ccc(N2CCCn3c2nc2c3c(=O)n(CC(=O)O)c(=O)n2C)cc1 | i
CCCNS(=O)(=O)c1ccc(OC)c2ccccc12 | i
Cc1cc(NC(=O)CSc2nnc(N3CCN(C(=O)CC4CCCC4)CC3)s2)no1 | i
O=S(=O)(Cc1ccc(C(F)(F)F)cc1)NCc1ccsc1 | i
CCCCCC(O)/C=C/C=O (stereo not given) | i
COc1ccc(NC(=O)Cn2nc3cc(-c4ccccc4)nc(C)n3c2=O)cc1F | i
COc1ccc(-c2nnc(NC(=O)c3cnc4ccccc4n3)o2)c(OC)c1 | i
O=C(CSc1nccn1-c1ccc(C(=O)NCc2ccccc2)cc1)Nc1cc(F)ccc1F | i
CN1CCC(C(=O)Nc2n[nH]c3nc(-c4ccc(O)cc4)c(Br)cc23)CC1 | i
CS(=O)(=O)c1ccc(NC(=O)C2CSCCC(=O)N2)cc1 (stereo not given) | i
NS(=O)(=O)c1ccc(CNC(=O)Cn2nc(-n3cccn3)ccc2=O)cc1 | i
COCCCn1c(C(=O)Nc2cccc(OC)c2)cc2c(=O)n3ccccc3nc21 | i
CCS(=O)(=O)N1CCN(c2ccc(Nc3ccc(C)cc3)nn2)CC1 | i
CC(=O)C1=C(C)Nc2ncnn2C1c1cccc(Oc2ccccc2)c1 (stereo not given) | i
CCn1c(SCC(=O)Nc2ccc(S(N)(=O)=O)cc2)nc2sc3c(c2c1=O)CCC(C)C3 (stereo not given) | i
COc1cccc(NC(=O)CSc2nc3cc(OC)c(OC)cc3c3nc(C)nn23)c1 | i
Cc1cccn2c(=O)cc(OCC(=O)NC(C)C)nc12 | i
Cc1cc(C)n2nc(C(=O)NCc3sc(-c4ccccc4Cl)nc3C)nc2n1 | i
CCOc1cccc(-c2noc(Cn3c(=O)n(CCCOC)c(=O)c4ccccc43)n2)c1 | i

4 records picked at random from those above:
SMILES | GIRK2 act
CCOc1cccc(-c2noc(Cn3c(=O)n(CCCOC)c(=O)c4ccccc43)n2)c1 | i
CC(=O)C1=C(C)Nc2ncnn2C1c1cccc(Oc2ccccc2)c1 (stereo not given) | i
Cc1cc(C)n2nc(C(=O)NCc3sc(-c4ccccc4Cl)nc3C)nc2n1 | i
Cc1cccn2c(=O)cc(OCC(=O)NC(C)C)nc12 | i
